Screens from PubChem BioAssay.
DUX4 txn inh: blocks DUX4-driven transcriptional activation; 293T-iDUX4 ZSCAN4-Gaussia luciferase reporter, 24 h; hits give low values; activity change, negative = inhibition, % (concentration not given with the values); 0.8% of 37,000 active; AID 1224904;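 active means -10% or lower and over 25 points stronger than a control reporter; inconclusive means -10% or lower with a smaller gap; inactive means above -10%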;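 further: 0% = median of neutral control wells and -100% = median of positive control wells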
DUX4 txn inh difference: second read-out of DUX4 txn inh, no call of its own (marks repeat the call); Gaussia minus Italica difference, %; measured here: selective DUX4 reporter inhibition;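 worked out from the two reporters; negative = selective loss of the DUX4 reporter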
DUX4 txn inh control: also measured in DUX4 txn inh; calls as there; activity change, negative = inhibition, %; measured here: Italica tet-on control reporter;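 0 = neutral control and -100 = positive control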
Active calls of the source: *; ? = inconclusive; nt = not tested or not shown. This is a subset. The share of hits here may be higher or lower than overall.

SMILES | DUX4 txn inh | DUX4 txn inh difference | DUX4 txn inh control
CCCNC(=O)C[C@@H]1CC[C@H]2[C@@H](COC[C@H](O)CN2C(=O)c2ccccn2)O1 | 16 | 9 | 6.8
C[C@H]1CN([C@@H](C)CO)C(=O)CCCn2cc(nn2)CO[C@H]1CN(C)S(=O)(=O)c1ccccc1F | 6 | 7 | -0.9
CS(=O)(=O)N1CCCCN2[C@H](CO)[C@@H](c3ccc(Br)cc3)[C@@H]2C1 | 3 | 10 | -6.8
COc1ccc2c3c([nH]c2c1)[C@@H](CO)N(Cc1ccccn1)CC31CCN(C(C)=O)CC1 | 16 | 1 | 15
O=C(C[C@@H]1CC[C@@H](NS(=O)(=O)c2ccc(F)cc2)[C@H](CO)O1)NC1CCCCC1 | 8 | -2 | 9.5
CN(C)C(=O)[C@@H]1[C@@H](CO)[C@@H]2Cn3c(ccc(-c4ccccc4F)c3=O)[C@H]1N2C(=O)c1ccccc1 | -5 | -7 | 1.3
COCC(=O)N1CC[C@H]2[C@H](CO)Nc3ccc(-c4cccc(C#N)c4)cc3[C@H]21 | 18 | 3 | 15
CO[C@@H]1CN(C)C(=O)c2ccc(NC(C)=O)cc2OC[C@H](C)N(C(=O)c2cnccn2)C[C@H]1C | -2 | -6 | 3.1
O=C1CCC(=O)N[C@@H](c2ccc3c(c2)OCO3)C/C=C\CCN1 | 8 | 4 | 3.2
Cc1ccccc1S(=O)(=O)N1C[C@@H](O)COC[C@H]2O[C@H](CC(=O)NCCc3ccccc3)CC[C@@H]21 | 2 | 3 | -0.7

The final five entries of the part before lead into the next:
SMILES | DUX4 txn inh | DUX4 txn inh difference | DUX4 txn inh control
CN(C)C(=O)[C@@H]1[C@@H](CO)[C@@H]2Cn3c(ccc(-c4ccccc4F)c3=O)[C@H]1N2C(=O)c1ccccc1 | -5 | -7 | 1.3
COCC(=O)N1CC[C@H]2[C@H](CO)Nc3ccc(-c4cccc(C#N)c4)cc3[C@H]21 | 18 | 3 | 15
CO[C@@H]1CN(C)C(=O)c2ccc(NC(C)=O)cc2OC[C@H](C)N(C(=O)c2cnccn2)C[C@H]1C | -2 | -6 | 3.1
O=C1CCC(=O)N[C@@H](c2ccc3c(c2)OCO3)C/C=C\CCN1 | 8 | 4 | 3.2
Cc1ccccc1S(=O)(=O)N1C[C@@H](O)COC[C@H]2O[C@H](CC(=O)NCCc3ccccc3)CC[C@@H]21 | 2 | 3 | -0.7
CCC(=O)N[C@@H]1C=C[C@@H](CC(=O)OC)O[C@@H]1CO | 2 | 1 | 0.3
COc1cccc(-c2ccc([C@H]3[C@H]4CN(C(=O)NC(C)C)CCCCN4[C@H]3CO)cc2)c1 | 10 | 10 | 0.3
COCC(=O)N1CC2(C1)CN(Cc1ccccc1Cl)[C@H](CO)c1c2c2ccc(OC)cc2n1C | -7 | -5 | -2.6
CCC(=O)N1C[C@@H](O)COC[C@H]2O[C@@H](CC(=O)NCc3ccc(Oc4ccccc4)cc3)CC[C@@H]21 | -3 | -2 | -1.6
C[C@@H]1CN([C@H](C)CO)C(=O)Cc2cc(NC(=O)Nc3ccc(F)cc3)ccc2O[C@@H]1CN(C)S(C)(=O)=O | 4 | -2 | 5.9
COc1ccc2c3c([nH]c2c1)[C@H](CO)N(Cc1cccnc1)CC31CN(C(=O)CN(C)C)C1 | 14 | 6 | 7.8
C[C@H](NC(=O)C[C@H]1CC[C@@H]2[C@H](COC[C@H](O)CN2C(=O)Nc2cccc(Cl)c2)O1)c1ccccc1 | 9 | 7 | 1.6
CO[C@@H]1CN(C)C(=O)c2cc(NC(=O)C3CCOCC3)ccc2OC[C@@H](C)N(C(=O)Nc2ccc(C(F)(F)F)cc2)C[C@H]1C | 6 | 6 | -0.2
N#C[C@@H]1[C@H](c2ccc(-c3cncnc3)cc2)[C@H](CO)N1C(=O)C1CCC1 | -1 | 2 | -2.4
COCC(=O)N1CC2(CN(C(=O)c3ccccn3)C2)c2c(n(C)c3cc(OC)ccc23)[C@@H]1CO | 6 | -2 | 7.7

Entries of single compounds, quoted from the list. Screens in order: DUX4 txn inh, DUX4 txn inh difference, DUX4 txn inh control
CO[C@@H]1CN(C)C(=O)c2cc(NC(=O)C3CCOCC3)ccc2OC[C@@H](C)N(C(=O)Nc2ccc(C(F)(F)F)cc2)C[C@H]1C as listed: 6, 6, -0.2
N#C[C@@H]1[C@H](c2ccc(-c3cncnc3)cc2)[C@H](CO)N1C(=O)C1CCC1 as listed: -1, 2, -2.4
COCC(=O)N1CC2(CN(C(=O)c3ccccn3)C2)c2c(n(C)c3cc(OC)ccc23)[C@@H]1CO as listed: 6, -2, 7.7
COc1ccc2c3c([nH]c2c1)[C@H](CO)N(Cc1cccnc1)CC31CN(C(=O)CN(C)C)C1 as listed: 14, 6, 7.8

(next part)
SMILES | DUX4 txn inh | DUX4 txn inh difference | DUX4 txn inh control
COCC(=O)N1CC2(CCN(S(C)(=O)=O)CC2)c2c(n(C)c3cc(OC)ccc23)[C@H]1CO | 14 | 4 | 10
O=S(=O)(c1ccc(F)cc1)N1CCCCN2[C@H](CO)[C@H](c3ccc(C#CC4CC4)cc3)[C@H]2C1 | ? | nt | nt
O=C(c1ccccc1)N1CC(=O)N2[C@H](CO)[C@H](c3ccc(C#CC4CC4)cc3)[C@@H]2C1 | 5 | 4 | 0.9
O=C(Nc1cccc(Cl)c1)N1C[C@H]2[C@@H](c3ccccc31)[C@@H](CO)N2C(=O)c1ccncc1 | -1 | -4 | 3.3
CCC(=O)N1Cc2cc(C(=O)NCCOC)nc(-c3cccc(-c4ccc(C#N)cc4)c3)c2[C@@H]1CCO | -5 | -7 | 2.0
O=C(NCc1ccc(F)cc1)[C@@H]1[C@@H](CO)[C@@H]2Cn3c(cccc3=O)[C@@H]2N1C(=O)c1cccnc1 | 8 | 6 | 2.1
O=C(NC[C@@H]1[C@@H](c2ccccc2)[C@@H](CO)N1CC1CCCC1)c1cccnc1 | -4 | -6 | 1.9
COc1ccccc1C#Cc1ccc([C@@H]2[C@@H](C#N)N(C(=O)C3CCCCC3)[C@@H]2CO)cc1 | -4 | -2 | -1.9
CN(C)CCCNC(=O)C[C@H]1CC[C@@H](NS(=O)(=O)c2ccccc2)[C@H](CO)O1 | -3 | -1 | -2.5
C[C@H]1CCCCO[C@H](CN(C)C(=O)Nc2ccccc2)[C@@H](C)CN([C@@H](C)CO)C(=O)c2cc(NC(=O)Nc3ccccc3)ccc2O1 | 1 | 0 | 1.1
CCC(=O)N1C[C@H](C)[C@@H](OC)CN(C)C(=O)c2ccc(NC(=O)CC(F)(F)F)cc2OC[C@H]1C | 2 | 3 | -0.8
COc1ccc2c3c([nH]c2c1)[C@@H](CO)N(C(=O)Cc1ccccc1)CC31CN(C(=O)Nc2ccccc2F)C1 | 11 | 22 | -11
CC(C)C(=O)Nc1ccc2c(c1)C(=O)N(C)[C@@H]1CC[C@@H](CC(=O)NCc3ccccc3F)O[C@@H]1CO2 | -2 | -1 | -1.2
CO[C@@H]1CN(C)C(=O)c2ccc(NC(=O)Nc3ccccc3F)cc2OC[C@H](C)N(CC2CC2)C[C@@H]1C | 7 | 8 | -1.1
CCCNC(=O)N1[C@H](C(=O)N2CCCCC2)[C@@H](CO)[C@@H]2Cn3c(ccc(-c4ccc(F)cc4)c3=O)[C@@H]21 | -2 | 0 | -1.9
CCCC#Cc1cnc2c(c1)C(=O)N([C@H](C)CO)C[C@@H](C)[C@H](CN(C)S(=O)(=O)c1cccc(OC)c1)O2 | -2 | 2 | -3.7
CCCC#Cc1ccc([C@H]2[C@H]3CN(S(=O)(=O)c4ccccc4C)CC(=O)N3[C@H]2CO)cc1 | ? | nt | nt
COc1ccccc1-c1ccccc1[C@@H]1[C@H](C#N)N(C(=O)C2CCOCC2)[C@H]1CO | 3 | 0 | 2.7
O=C(C1CCCCC1)N1CC2(C1)[C@H](c1ccccc1)[C@H](CO)N2Cc1nccs1 | ? | nt | nt
CN(C)CC(=O)N1[C@H](CO)[C@H](c2ccccc2)C12CN(C(=O)c1ccc(F)cc1)C2 | 4 | 6 | -2.1
CN1CCN(C(=O)[C@@H]2[C@@H](CO)[C@@H]3Cn4c(cccc4=O)[C@@H]3N2Cc2cc(F)ccc2F)CC1 | 11 | 8 | 2.9
COc1ccccc1C(=O)Nc1ccc2c(c1)OC[C@@H](C)NC[C@@H](C)[C@@H](OC)CN(C)C2=O | -1 | -3 | 1.8
CO[C@H]1CC[C@H]2CCOc3c(C#N)cccc3C(=O)N(C)CCCC(=O)N(C)C[C@H]1O2 | 2 | -5 | 6.9
CCc1csc(N2[C@H](CNCCOC)[C@H](c3ccccc3)[C@@H]2CO)n1 | -2 | 1 | -2.9
CCNC(=O)C[C@H]1CC[C@H]2[C@@H](COC[C@H](O)CN2C(=O)c2cccnc2)O1 | 16 | 6 | 10
CN(C)CC(=O)N1[C@@H](CO)[C@@H](c2ccccc2)C12CN(C(=O)C1CCCC1)C2 | 11 | 13 | -1.9
CCN1[C@@H]2Cn3c(ccc(-c4ccncc4)c3=O)[C@H]1[C@@H](C(=O)NCc1ccccc1)[C@@H]2CO | -3 | -7 | 4.1
COc1ccc2c3c([nH]c2c1)[C@H](CO)N(S(C)(=O)=O)CC31CN(C(=O)Nc2ccccc2)C1 | 10 | 7 | 2.7
CCC(=O)N(CC)C[C@@H]1[C@@H](c2ccccc2)[C@H](CO)N1C(C)=O | -1 | -1 | -0.5
C[C@@H]1CN([C@@H](C)CO)C(=O)c2cc(C3=CCCCC3)cnc2O[C@@H]1CN(C)CC1CCOCC1 | 6 | -2 | 8.1
COc1ccccc1NC(=O)N1CC(=O)N2[C@H](C1)[C@H](c1ccc(C#CCC(C)C)cc1)[C@@H]2CO | -4 | 7 | -11
CCC(=O)N1CC2(C1)[C@H](c1ccc(-c3ccccc3)cc1)[C@H](CO)N2C(C)=O | 10 | 10 | 0.0
C[C@H]1CN([C@@H](C)CO)C(=O)c2ccccc2-c2ccccc2CO[C@H]1CN(C)C(=O)Nc1cccc(C(F)(F)F)c1 | 5 | 1 | 4.0
COc1ccc2c3c([nH]c2c1)[C@H](CO)N(C)CC31CN(S(=O)(=O)c2cccc(F)c2)C1 | 14 | 0 | 14
C[C@H](CO)N1C[C@H](C)[C@H](CN(C)C(=O)[C@@H]2CCCN2C)OCc2ccccc2-c2c(n(C)c3ccccc23)C1=O | ? | nt | nt
CC(=O)N1C[C@@H]2[C@H](c3ccccc31)[C@H](CO)N2S(=O)(=O)c1ccccc1 | 2 | 5 | -3.5
CCN1C[C@@H](C)[C@H](OC)CN(C)C(=O)c2cc(NC(=O)NC(C)C)ccc2OC[C@H]1C | 0 | 0 | 0.3
COc1ccc(NC(=O)Nc2ccc3c(c2)[C@@H]2C[C@@H](CC(=O)N[C@@H](C)c4ccccc4)O[C@H](CO)[C@@H]2O3)cc1 | 4 | 4 | -0.1
O=C(C[C@@H]1CC[C@@H]2[C@H](COC[C@@H](O)CN2C(=O)C2CCCC2)O1)NCc1ccncc1 | 3 | -7 | 9.4
C[C@@H]1CCCCO[C@@H](CN(C)C(=O)CCCN(C)C)[C@H](C)CN([C@H](C)CO)C(=O)c2cc(NS(=O)(=O)c3cn(C)cn3)ccc2O1 | 0 | -5 | 4.6
CCC(=O)N1C[C@H]2[C@@H](c3ccccc31)[C@@H](CO)N2C(=O)Nc1ccccc1F | 4 | 4 | -0.2
Cc1ccccc1S(=O)(=O)N(C)C[C@@H]1OCc2cnnn2CCCC(=O)N([C@H](C)CO)C[C@@H]1C | -1 | -3 | 1.4
CCS(=O)(=O)N1CCC2(CC1)CN(CC1CCOCC1)[C@H](CO)c1c2c2ccc(OC)cc2n1C | 8 | -2 | 10
Cc1noc(C)c1S(=O)(=O)Nc1ccc2c(c1)C(=O)N([C@H](C)CO)C[C@H](C)[C@H](CN(C)S(=O)(=O)c1ccc(F)cc1)OCCCC[C@@H](C)O2 | -2 | -4 | 2.3
COCC(=O)N1[C@H](C(=O)N2CCN(C)CC2)[C@@H](CO)[C@@H]2Cn3c(ccc(C4=CCCCC4)c3=O)[C@@H]21 | 0 | -10 | 9.6
C[C@H]1CN([C@@H](C)CO)C(=O)c2ccccc2-c2ccccc2CO[C@@H]1CN(C)C(=O)Nc1cccc(Cl)c1Cl | 7 | 8 | -1.0
COCCNC(=O)C[C@H]1CC[C@H]2[C@@H](COc3ccc(NC(=O)Cc4ccccc4)cc3C(=O)N2C)O1 | 2 | 3 | -0.5
FC(F)(F)c1cccc(CN2[C@@H]3CNC[C@H]2[C@@H]3c2ccc(-c3cccnc3)cc2)c1 | 11 | 10 | 1.0
O=C(NC1CCCCC1)N1CC2(C1)[C@@H](c1ccccc1)[C@@H](CO)N2CC1CCOCC1 | 8 | 1 | 6.7
C[C@@H]1CN([C@H](C)CO)C(=O)c2cc(NS(=O)(=O)c3cn(C)cn3)ccc2O[C@H]1CN(C)C(=O)Nc1cccc2ccccc12 | -1 | -1 | 0.4
CN1[C@@H]2c3ccc(-c4ccncc4)c(=O)n3C[C@H]1[C@H](CO)[C@H]2C(=O)NCC1CCCCC1 | 2 | 1 | 1.7
CN(C)C(=O)C[C@@H]1CC[C@H]2[C@H](COc3ccc(NC(=O)Nc4cccc(Cl)c4)cc3C(=O)N2C)O1 | 2 | -1 | 3.2
